HIV TAR-Tat: HIV-1 TAR-Tat binding disruption. HIV-1 TAR RNA, Tat peptide displacement FRET; active compounds read high. 100,000 tested, 0.6% active. AID 1259389. z-score (concentration not given with the values);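 also: score is relative to mean and SD of negative controls; some compounds called inactive have numbers as strong as hits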
CDC25B-CDK2 inh: human CDC25B-CDK2/CyclinA binding inhibition; HTRF CDC25B-CDK2/CyclinA binding, anti-His/anti-Flag; active compounds read high; z-score (concentration not given with the values); 94,000 tested, 0.72% active;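 also: score is relative to mean and SD of negative controls; strong numbers were not always called active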
Numbers without * were called inactive; x = no result given; & = joins results of further samples.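 The calls were made as follows: active = z-score from 3 up in half or more of its runs; inactive = the rest.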 Outcome played no part in choosing rows; overall some 0.94% were active at least once.

Sequence of screens: HIV TAR-Tat, CDC25B-CDK2 inh
- Cc1ccc(N(C(=O)c2cc([N+](=O)[O-])cc([N+](=O)[O-])c2)C2C=CS(=O)(=O)C2)cc1 (configuration not stated)
 : x, -0.43
- CC(=O)OCC12c3ccccc3C(COC(C)=O)(c3ccccc31)C1C(=O)N(c3ccccc3)C(=O)C12 (configuration not stated)
 : 0.83, -0.95
- CC(C)Cn1c(CCc2ccccc2)nnc1SCc1nc(-c2cccs2)no1
 : 0.72, -0.46
- COc1ccc(C(C)=O)cc1CSc1ccccn1
 : x, -1
- O=C(c1cccs1)n1ccc(C(F)(F)F)n1
 : x, -0.82
- CN(Cc1ccco1)C(=O)c1cc2c(s1)-c1ccccc1SC2
 : 1.5, -0.55
- CC1CCN(CCNC(=O)c2noc3c2CCc2sccc2-3)CC1
 : 1.2, x
- CC(=O)NC(C)(C)Cc1ccc(N(C)C)cc1
 : x, -1.6
- COc1ccc(C)cc1S(=O)(=O)N1CCN(c2cc(N3CCCC3)nc(C)n2)CC1
 : -0.52, -1.7
- COc1ccc(OCC(=O)OC2=CN(Cc3ccccc3)S(=O)(=O)c3ccccc32)cc1
 : 0.35, -0.11
- NNC(=O)c1c(-c2ccccc2)c(-c2ccccc2)nn2nnnc12
 : x, 0.19
- Cc1ccc(Cl)cc1N1CCN(S(=O)(=O)c2cccc3nsnc23)CC1
 : x, 1.3
- O=C(Cn1nc(-c2ccco2)ccc1=O)Nc1cccc(F)c1
 : -0.05, x
- CCn1cc2nc(SC)n(Cc3ccc(Cl)cc3)c(=O)c2n1
 : 0.08, x
- N#Cc1nc(/C=C/c2cccs2)oc1NCc1ccc2c(c1)OCO2
 : -0.79, -0.26
- CCCNC(=O)Cn1nc(CC)n2c(cc3cc(F)ccc32)c1=O
 : 0.48, 0.61
- Cn1ncc2c(Nc3ccccc3)nc(NCCO)nc21
 : 1.3, x
- CCc1nnc(NC(=O)Cc2coc3ccc(C(C)C)cc23)s1
 : 1.1, -1.6
- CS(=O)(=O)/C(C#N)=C\c1ccc(Cl)s1
 : x, -0.69
- NC(=O)CNC(=O)c1cccc(Cl)c1
 : x, -2

Of the compounds above, 3 contain fluorine:
Sequence of screens: HIV TAR-Tat, CDC25B-CDK2 inh
- O=C(c1cccs1)n1ccc(C(F)(F)F)n1
 : x, -0.82
- O=C(Cn1nc(-c2ccco2)ccc1=O)Nc1cccc(F)c1
 : -0.05, x
- CCCNC(=O)Cn1nc(CC)n2c(cc3cc(F)ccc32)c1=O
 : 0.48, 0.61

(continued)
Sequence of screens: HIV TAR-Tat, CDC25B-CDK2 inh
- O=c1oc2ccccc2n1-c1nc2ccccc2o1
 : -1.7, -2.7
- CCOC(=O)c1cn[nH]c1S(=O)(=O)Nc1ccc(OC)c(OC)c1
 : -0.57, x
- C=CCn1c(SCc2n[nH]c(=S)n2C)nnc1-c1ccccc1
 : x, 0.2
- CC1=C(C(=O)OC2CCCCC2)C(c2coc3ccc(Cl)cc3c2=O)C2=C(CCCC2=O)N1 (configuration not stated)
 : 0.59, 0.56
- O=C(Nc1ccc2c(c1)OCCO2)Nc1cccs1
 : x, -2.1
- C#CC(CC)(CC)NC(=S)NCCc1ccccc1
 : x, -1.7
- CC(C)n1c(CCC(=O)O)ccc1-c1ccc(F)cc1
 : x, -0.06
- COc1cc(C(=O)NS(=O)(=O)c2ccccc2C)ccc1Cc1cn(C)c2ccc(NC(=O)OC3CCCC3)cc12
 : -1.5, x
- O=C(Nc1ccc(Br)cc1)C1CCCN(S(=O)(=O)c2cccs2)C1 (configuration not stated)
 : 2.4, -1.2
- Cc1ccc(CNC(=O)C2CCCN(c3nn4c(=O)c5c(nc4s3)CCCC5)C2)o1 (configuration not stated)
 : 1.4, x
- CCCCC(=O)Nc1sc2c(c1C(=O)OCC)CC(C)(C)OC2
 : 0.19, -2.4
- CC(C)(C)OC(=O)N1CCCN(S(=O)(=O)c2cccc3nsnc23)CC1
 : x, -1.8
- O=C(C1CCCN(c2nc3ccccc3n3cccc23)C1)N1CCN(c2ccccc2)CC1 (configuration not stated)
 : 2.7, x
- O=C(NCc1ccc2c(c1)OCO2)c1csc2c1CCCCC2
 : -0.52, -2.6
- COc1ccc(Cn2c(=S)[nH]c3c(sc4ccccc43)c2=O)cc1
 : x, 0.02
- O=C(NC1CCSC1)c1cccc(Cl)c1 (configuration not stated)
 : x, -2
- CC(=O)NC1=NN(C(C)=O)C(C)(c2ccco2)S1 (configuration not stated)
 : x, -1.8
- Nc1nonc1-c1nc2ccccc2n1CC(=O)NCCCN1CCOCC1
 : 1.1, 0.22
- COc1ccc2c(c1)C=C(C(=O)Nc1cc(OC)ccc1OC)C=CO2
 : -0.29, 0.15
- CC1CCC(C(C)C)/C(=N/NC(=O)CC#N)C1 (configuration not stated)
 : x, -0.7
- Cc1cn2c(=O)c(S(=O)(=O)NCc3cccs3)c(C)nc2s1
 : -0.85, x
- Cc1cccc(C)c1NC(=O)CSc1ccc(C(F)(F)F)cc1[N+](=O)[O-]
 : x, -1.1
- O=C1CC(c2ccccc2Cl)Nc2ccc3ccccc3c21 (configuration not stated)
 : 1.8, -2
- O=c1[nH]c(-c2ccccc2)nc2c1Cc1cc(Cl)ccc1O2
 : 1.6, -0.93
- O=C(Nc1ccc2c(c1)OCO2)c1cnc(N2CCCC2)nc1
 : 1.6, x
- CCc1c(C)nc2ncnn2c1Nc1ccc(OC)c(Cl)c1
 : 1.9, -0.48
- COC(=O)CN1C(=O)C2CCCCN2C(=O)c2ccccc21 (configuration not stated)
 : 1.9, x
- COc1ccc(OCCN[C@H]2CS(=O)(=O)C[C@@H]2S(=O)(=O)c2ccccc2)cc1
 : 0.98, 0.89
- CC(=O)N1CCc2cc(S(=O)(=O)C(C)CC(=O)Nc3cccc4c3CCCC4)ccc21 (configuration not stated)
 : 0.43, x
- O=C(CSc1nn(-c2ccccc2)c(=S)s1)Nc1nccs1
 : 4, 0.81
- CCOC(=O)N1CCN(C(=O)c2sc(-n3nc(C)c(Cl)c3C)nc2C)CC1
 : 0.19, -1
- Cc1nnc2c(NCCC(C)C)nc3ccccc3n12
 : 1.1, -1.4
- Cc1nc2nc(NC(=O)c3ccco3)[nH]n2c(=O)c1C
 : -1.2, -1.4
- Brc1ccc(-c2nc(-c3ccncc3)no2)cc1
 : x, -1.9
- O=C(Cn1cc(S(=O)(=O)Cc2ccccc2)c2ccccc21)N1CCCC1
 : -0.44, x
- O=C(CC1(O)C(=O)Nc2ccc(Cl)cc21)c1cccc(Cl)c1 (configuration not stated)
 : -0.08, x
- Cc1cc(NC(=O)N2CCC3(CC2)CC(=O)c2ccccc2O3)ccc1Br
 : 1, x
- c1ccc(-c2noc(-c3ccc4ccccc4c3)n2)cc1
 : 0.14, -0.44
- Clc1cccc(-n2cc(-c3ccccc3)c3c(N4CCCC4)ncnc32)c1
 : x, 0.06
- O=C(Nc1ccccc1)C1Cc2ccccc2CN1S(=O)(=O)c1cccs1 (configuration not stated)
 : 2.1, x
- Cc1cc(NC(=O)Cn2nc(C(F)(F)F)c3c2CCCC3)no1
 : 3.3, -0.62
- CC(C)c1ccc(CN2N=NC3C(=O)N(c4ccccc4)C(=O)C32)cc1 (configuration not stated)
 : -0.38, 0.19
- CCc1cc2c3c([nH]c2cc1S(=O)(=O)NCc1cccnc1)CCCC3=O
 : 0.38, x
- N#C/C(=C\C=C\c1ccccc1)c1ccc([N+](=O)[O-])cc1
 : x, -1.4
- O=C(NCc1ccc2c(c1)OCO2)C(=O)NCC(c1cccnc1)N1CCOCC1 (configuration not stated)
 : 3.2, -2.2
- O=C(O)c1nsnc1C(=O)O
 : x, -1.9
- COc1ccc(C2CC(=O)N3CN(Cc4ccccc4)CSC3=C2C#N)c(OC)c1 (configuration not stated)
 : 1.1, 4.5*
- CC1=C(C(=O)OCc2ccccc2)C(c2ccccc2)NC(=O)N1 (configuration not stated)
 : x, -2.5
- Cc1oc(C(=O)O)cc(=O)c1C
 : x, -1.4
- COC(=O)c1noc(-c2ccc(Cl)cc2)n1
 : 0.18, -0.67
- N=C1C(c2nc3ccccc3[nH]2)=C(O)CN1c1cccc(Cl)c1
 : 0.75, 0.04
- CCOc1ccc2c(c1)C(C)=CC(C)(C)N2C(=O)NC1CCCCC1
 : 2.3, -1.1
- CCCCn1c(SCCO)nc2c(c1=O)C1(CCCC1)Cc1ccccc1-2
 : 1.5, 2.2
- CCOC(=O)c1sc(=S)n(-c2cc(OC)ccc2OC)c1N
 : 2.8, x
- Cc1ccc(C(=O)N2CCN(C(=O)CSc3nc4ccccc4s3)C2)cc1
 : 0.58, 0.01
- Cn1c(SCc2ccccc2)nc(=O)c2c1NC(=O)CC2c1cccc(F)c1F (configuration not stated)
 : -1, -0.94
- Cn1ccc2cc(S(=O)(=O)N3CCN(C(=O)NC4CCCCC4)CC3)ccc21
 : 1.6, x
- N#C/C(=C(/Oc1ccc(Cl)cc1Cl)C(F)(F)F)c1ccccc1
 : x, -1.4
- Nc1ccc(O)c2c1C(=O)c1c(N)ccc(O)c1C2=O
 : x, -2.6
- N#CC1=C(N)Oc2n[nH]c(-c3ccc4c(c3)OCO4)c2C1c1ccncc1 (configuration not stated)
 : x, -0.97

Single records (already shown).
Entry for C#CC(CC)(CC)NC(=S)NCCc1ccccc1 = HIV TAR-Tat = x; CDC25B-CDK2 inh = -1.7
Entry for CC(=O)NC(C)(C)Cc1ccc(N(C)C)cc1 = HIV TAR-Tat = x; CDC25B-CDK2 inh = -1.6
Entry for N=C1C(c2nc3ccccc3[nH]2)=C(O)CN1c1cccc(Cl)c1 = HIV TAR-Tat = 0.75; CDC25B-CDK2 inh = 0.04

Remaining list, next part:
Sequence of screens: HIV TAR-Tat, CDC25B-CDK2 inh
- O=C(CCCc1nc(-c2ccncc2)no1)NC1CCCCC1
 : 1.6, 1.4
- Cc1ccc2c(c1)N(CCC(=O)NCCCN1CCOCC1)C(=O)C(C)O2 (configuration not stated)
 : x, -0.24
- CCOc1ccc(-c2nc(SCC(=O)Oc3ccccc3C)n3[nH]c(=O)cc3n2)cc1
 : 0.29, x
- CCc1nn(CC(=O)NC(C)CCc2ccco2)c(=O)c2cc3occc3n12 (configuration not stated)
 : 0.85, -0.12
- Cc1cc(C)cc(NS(=O)(=O)c2cc(-c3cc(C)no3)ccc2C)c1
 : 0.01, x
- CN(C)c1oc(/C=C/c2ccc(F)cc2)nc1C#N
 : -0.41, -1.7
- c1ccc2c(c1)OCC(c1nn3cnnc3s1)O2 (configuration not stated)
 : 0.59, -0.84
- Cc1c(NC(=O)C2CC2)c(=O)n(-c2ccccc2)n1C
 : 1.5, 0.16
- COc1cccc(-c2[nH]nc3nc(-c4cc(OC)ccc4OC)cc(C(=O)O)c23)c1
 : -0.37, -1.6
- O=C1CNC(=O)C2(c3ccccc3)CCCN12 (configuration not stated)
 : 0.26, -1.4
- CC(=O)C1=C(C)OC(N)=C(C#N)C1c1cccc(Cl)c1 (configuration not stated)
 : x, -1.2
- Cc1ccc(-c2c(NC3CCCC(C)C3C)c(=O)c2=O)cc1 (configuration not stated)
 : 2.6, x
- CCOC(=O)C1=C(C)NC(C)=C(C(=O)OC)C1c1cccc([N+](=O)[O-])c1 (configuration not stated)
 : 0.13&1.2, -1
- COc1ccc(NC(=O)CSc2nc(-c3ccco3)nc3c2c(=O)n(C)c(=O)n3C)cc1
 : x, -0.34
- Cc1ccc(C)n1CCN1CCN(C(=O)Cn2cnc(S(=O)(=O)N3CCCC3)c2)CC1
 : -0.55, x
- CN(c1nnc(NC(=O)Nc2ccccc2F)s1)C1CCCCC1
 : -0.98, -0.59
- Cc1ccccc1CSc1nnc([C@@H]2CCCN2)o1
 : -1.2, -1.4
- Cc1cccc(Oc2nc3c4c(C)c(C)oc4ncn3n2)c1
 : -0.21, x
- COC(=O)c1cc2oc(C)cc2n1Cc1nc(-c2ccc(C)cc2)oc1C
 : -0.69, -2.1
- CC(C)NC(=O)Cn1c2c(c(=O)n3ncnc13)CCC2
 : -0.33, -2.6
- OCc1nc2cc3ccccc3cc2[nH]1
 : 1.2, -1.7
- COc1ccc(C(=O)O)c(O)c1OC
 : 0.09, x
- O=C(CSc1nc(-c2ccccc2F)nc2cc(=O)[nH]n12)Nc1ccc(F)c(Cl)c1
 : 1, x
- Clc1ccc(-c2noc(-c3cccnc3NC3CCCCC3)n2)cc1
 : 0.14, 1.7
- O=C(COc1ccccc1)N1CCC(c2nc3ccccc3s2)CC1
 : 0.99, -0.38
- COc1ccc(OCC(=O)N2CCN(c3nc4cc(Br)ccc4n4cccc34)CC2)cc1
 : -0.17, -2.5
- O=C1CC(c2nc3ccccc3n2CCN2CCOCC2)CN1c1ccc(F)cc1 (configuration not stated)
 : -2, -3.6
- O=c1c(NCC2CCCO2)c(-c2ccccc2)c1=O (configuration not stated)
 : 2.2, x
- O=C(CSc1nc2ccccc2o1)NC1CC1
 : x, 2.4
- COc1ccc(C2C(OC(C)=O)C(c3ccccc3OCc3ccccc3)=NN2C(C)=O)cc1 (configuration not stated)
 : x, -0.27
- COc1cccc(-c2noc(CCC(=O)O)n2)c1
 : x, 1.6
- CCOc1cc(CNc2ncc(-c3ccc(Br)cc3)n2C)ccc1O
 : 2.3, -1.4
- Cc1noc(NS(=O)(=O)c2ccc(NC(=O)C3CC3)cc2)c1C
 : x, -1.6
- O=C(CSc1nc2ccccc2[nH]1)OCC(=O)N1c2ccccc2Sc2ccccc21
 : x, -0.93
- C=CCNc1nnc(-c2ccc(Cl)cc2)s1
 : 0.37, 0.5
- CC(C)(C)NS(=O)(=O)c1cccc2cccnc12
 : 0.49, 1.1
- Cc1csc(NC(=O)C(CC(C)C)N2Cc3ccccc3C2=O)n1 (configuration not stated)
 : -2.9, x
- COC(=O)CN1C(=O)CN(c2nc(C)cc(C)n2)C1=O
 : x, -0.48
- CC(C)n1c(SCc2nc(-c3ccccc3)no2)nc2cc3c(cc2c1=O)OCO3
 : 0.22, x

Screening results as filed in PubChem BioAssay.
